RN4220 kill: kills Staphylococcus aureus RN4220; AID 1259311; inhibition, % (no concentration beside the values); 330,000 tested, 0.33% active; S. aureus RN4220 growth, OD600, 16 h;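 active = z-score of -3 or lower and OD600 up to 0.18 on both plates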;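 note: plate controls were untreated cells for no effect and reference antibiotic for full effect; stock transfer was 100 nL into about 80 µL; one replicate is shown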
PrP UTR inh: suppresses PrP 5' UTR mRNA reporter expression; cell-based PrP 5' UTR mRNA reporter, plate reader; inhibition, % (no concentration beside the values); 340,000 tested, 0.35% active;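 active = every replicate at 50% or more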;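 note: 0 = median of the neutral control wells; tested in H4 reporter cells; numbers are from one replicate; inactives centre near -14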
Autofluor counter: compound fluorescence in toxin protease inhibitor counterscreen; compound autofluorescence counterscreen, microsphere flow cytometry; active compounds read high; fluorescence intensity (test concentration not listed); AID 624483; 360,000 tested, 3.1% active;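 active = at least 3 SD above the mean of all compounds, about 16000 in these data; inconclusive = too few beads counted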;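 note: 100 nL of 1 mM stock went into each well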
Mtb hypoxia inh: reduces hypoxia-regulated biosensor signal in M. tuberculosis; M. tuberculosis hypoxia-regulated fluorescent reporter, fluorescence; 300,000 tested, 0.1% active; fluorescence inhibition, % (concentration not given with the values); AID 1159583;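 active = 35 to 45% if threefold the growth effect, above 45% if 1.5-fold the growth effect; inactive = the rest, general growth blockers included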;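 note: wells of about 50 µL received 100 nL stock; 0% = vehicle wells and 100% = reference inhibitor wells; whole bacteria with a GFP reporter of the hypoxia response; strong numbers were not always called active; many hits fall short of the cut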
Sa ugtP lethal: compounds lethal to S. aureus RN4220 ugtP deletion mutant; OD600 growth, 16 h; some inactives read as strong as hits; growth inhibition, % (no concentration beside the values); 330,000 tested, 0.54% active; AID 1259309;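 active = z-score under -3 and OD600 up to 0.15 on both plates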;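 note: plate controls were untreated wells for no effect and antibiotic for full effect; wells of about 80 µL received 100 nL stock; the first replicate is given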
BJeLR lethal: BJeLR cell viability loss. BJeLR (HRASV12) viability, CellTiter-Glo ATP luminescence, 48 h; reference of the scale not given here. inhibition, % (no concentration beside the values). 300,000 tested, 0.17% active;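 active = replicate mean above 50%; inconclusive = above 50% but judged a plate artefact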;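 note: 50 nL library stock added to about 25 µL; numbers are from one replicate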
Mtb hypoxia inh growth: second read-out of Mtb hypoxia inh, no call of its own (marks repeat the call); growth inhibition, %; measured here: M. tuberculosis growth (absorbance);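 0% = vehicle and 100% = reference antibiotic; read after six days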
Active calls of the source: *.

Results for COc1cc(OC)c(N(C)S(=O)(=O)c2cccc(C(=O)Nc3nc(C)cs3)c2)cc1Cl ?
RN4220 kill: 1.5; PrP UTR inh: -6; Autofluor counter: 7724; Mtb hypoxia inh: 5; Sa ugtP lethal: -10; Mtb hypoxia inh growth: 4

How did Cc1ccc2c(c1)N(CCCC(=O)NCc1cccnc1)C(=O)CO2 do in these assays?
RN4220 kill: 1.3; PrP UTR inh: -27; Autofluor counter: 4263; Mtb hypoxia inh: 3; Sa ugtP lethal: 4; BJeLR lethal: 9; Mtb hypoxia inh growth: 5

What do the screens show for `O=[N+]([O-])c1ccc(Cl)cc1N/N=C/c1ccncc1`?
PrP UTR inh: 4; Autofluor counter: 3056; BJeLR lethal: 17

What do the screens show for `O=c1c2ccccc2nc(NN=Cc2c(O)ccc3ccccc23)n1O`?
RN4220 kill: 12; Mtb hypoxia inh: 5; Sa ugtP lethal: -27; Mtb hypoxia inh growth: -7

Results for COC(=O)N1CCc2c(sc(NC(=O)C3=COCCO3)c2C#N)C1 ?
RN4220 kill: -0.3; PrP UTR inh: -52; Autofluor counter: 6634; Mtb hypoxia inh: -7; Sa ugtP lethal: -4; BJeLR lethal: 42; Mtb hypoxia inh growth: 8

How did Cc1cccc(C)c1NC(=O)CNC(=O)c1ccc2c(c1)NC(=O)CS2 do in these assays?
RN4220 kill: 1.4; PrP UTR inh: 6; Autofluor counter: 3616; Mtb hypoxia inh: 2; Sa ugtP lethal: 0; Mtb hypoxia inh growth: 6

Results for NS(=O)(=O)c1ccc(CCNCC#Cc2ccccc2)cc1 ?
RN4220 kill: 1.0; PrP UTR inh: -16; Autofluor counter: 3718; Mtb hypoxia inh: 8; Sa ugtP lethal: 15; BJeLR lethal: 6; Mtb hypoxia inh growth: -6

Results for O=C(CCCNC(=O)c1ccc(Cl)cc1)Nc1cccc(S(=O)(=O)N2CCCCC2)c1 ?
RN4220 kill: 8.8; PrP UTR inh: -11; Autofluor counter: inconclusive; Mtb hypoxia inh: 0; Sa ugtP lethal: -1; Mtb hypoxia inh growth: 0

Results for c1ccc(CN2CCN(c3ncnc4nc[nH]c34)CC2)cc1 ?
RN4220 kill: 10; PrP UTR inh: -15; Autofluor counter: 4587; Mtb hypoxia inh: 1; Sa ugtP lethal: -10; BJeLR lethal: 9; Mtb hypoxia inh growth: 2

What do the screens show for `Cc1cc(=O)oc2cc(OCC(=O)OCC(=O)NCc3ccc4c(c3)OCO4)ccc12`?
RN4220 kill: -1.1; PrP UTR inh: -27; Autofluor counter: 3980; Mtb hypoxia inh: 12; Sa ugtP lethal: 0; BJeLR lethal: -5; Mtb hypoxia inh growth: 10

Results for CN(c1ccc(OCC(=O)NC2=NCCS2)cc1)S(=O)(=O)c1ccc(F)cc1 ?
RN4220 kill: 0.5; PrP UTR inh: -20; Autofluor counter: 4802; Mtb hypoxia inh: -1; Sa ugtP lethal: 1; BJeLR lethal: -7; Mtb hypoxia inh growth: 1

What do the screens show for `CC(=O)C1=C(C)Nc2cc(C(F)(F)F)ccc2S1`?
RN4220 kill: 1.9; PrP UTR inh: -15; Autofluor counter: 3573; Sa ugtP lethal: 1; BJeLR lethal: 5

How did O=C(C=C=Nc1ccccc1)C(=O)N=C=Cc1ccccc1 do in these assays?
RN4220 kill: 9.7; PrP UTR inh: -20; Autofluor counter: 4082; Sa ugtP lethal: 10; BJeLR lethal: 1

How did CCn1c2ccccc2c2cc(NC(=O)CNCc3ccccc3OC)ccc21 do in these assays?
RN4220 kill: 9.9; PrP UTR inh: -55; Autofluor counter: 3650; Mtb hypoxia inh: -1; Sa ugtP lethal: -4; BJeLR lethal: 34; Mtb hypoxia inh growth: 5

What do the screens show for `O=C(Nc1ccc(CN2CCCCC2)cc1)Nc1ccccc1Cl`?
RN4220 kill: 4.2; PrP UTR inh: -38; Autofluor counter: 2804; Mtb hypoxia inh: 3; Sa ugtP lethal: 7; BJeLR lethal: 3; Mtb hypoxia inh growth: 6

What do the screens show for `Cc1ccc(CNC(=O)c2cc(-c3ccccc3C)nn2CC2CC(c3cccnc3)=NO2)cc1` (configuration not stated)?
RN4220 kill: 1.6; PrP UTR inh: -49; Autofluor counter: 3456; Mtb hypoxia inh: 4; Sa ugtP lethal: -10; Mtb hypoxia inh growth: 8

Results for C[C@]12CC[C@H](O)CC1=CCC1C2CC[C@@]2(C)C1CC[C@@H]2OCc1ccccc1 (some centres not stated) ?
RN4220 kill: -1.6; PrP UTR inh: -19; Autofluor counter: 3956; Mtb hypoxia inh: 15; Sa ugtP lethal: 11; Mtb hypoxia inh growth: 11

What do the screens show for `Cn1cccc1C(=O)Nc1nccs1`?
RN4220 kill: -0.8; PrP UTR inh: -28; Autofluor counter: 3030; Sa ugtP lethal: 11; BJeLR lethal: -14

Results for CCOc1ccc(NC(=O)c2cnsn2)cc1 ?
RN4220 kill: 0.4; PrP UTR inh: -12; Autofluor counter: 4386; Sa ugtP lethal: 7

How did O=C(NCCOc1ccc(Cl)cc1)C1CC(=O)N(c2ccc(F)cc2)C1 (configuration not stated) do in these assays?
RN4220 kill: -3.7; PrP UTR inh: -16; Autofluor counter: 8096; Mtb hypoxia inh: -7; Sa ugtP lethal: -13; BJeLR lethal: -1; Mtb hypoxia inh growth: -4

How did COc1cccc(/C=C2\SC(=N)N(c3ccc(F)cc3)C2=O)c1 do in these assays?
RN4220 kill: -14; PrP UTR inh: -11; Autofluor counter: 4508; Mtb hypoxia inh: 1; Sa ugtP lethal: 0; BJeLR lethal: 10; Mtb hypoxia inh growth: 4

How did CCOC(=O)c1cn(CC)c2ccc(Br)cc2c1=O do in these assays?
RN4220 kill: 3.7; PrP UTR inh: -13; Autofluor counter: 9262; Mtb hypoxia inh: 6; Sa ugtP lethal: -2; BJeLR lethal: 2; Mtb hypoxia inh growth: 6

What do the screens show for `CC(/C=N/N1C(=O)CSC1=S)=C\c1ccccc1`?
PrP UTR inh: -29; Autofluor counter: 5251; BJeLR lethal: 2

Results for Cn1c(CN2CCCC2)nc2cc(NC(=O)c3cccs3)ccc21 ?
RN4220 kill: 4.0; PrP UTR inh: -8; Autofluor counter: 2179; Mtb hypoxia inh: -3; Sa ugtP lethal: 11; BJeLR lethal: 9; Mtb hypoxia inh growth: 2

Results for Cc1ccc(CC(=O)Nc2nc3ccccc3[nH]2)cc1C ?
RN4220 kill: 1.6; PrP UTR inh: -17; Autofluor counter: 3160; Sa ugtP lethal: 3; BJeLR lethal: 1

Results for COc1ccc(NC(=O)Nc2ccc3oc(C)nc3c2)cc1 ?
RN4220 kill: 1.7; PrP UTR inh: -68; Autofluor counter: 2352; Mtb hypoxia inh: -1; Sa ugtP lethal: 8; BJeLR lethal: -2; Mtb hypoxia inh growth: 8

How did OCCn1c(-c2ccccc2)csc1=Nc1ccccc1 do in these assays?
RN4220 kill: 2.1; PrP UTR inh: -28; Autofluor counter: 2286; Mtb hypoxia inh: 15; Sa ugtP lethal: 3; BJeLR lethal: 3; Mtb hypoxia inh growth: -8

What do the screens show for `COc1ccc(CNC(=O)CC2C(=O)NCCN2C2Cc3ccccc3C2)cc1` (configuration not stated)?
RN4220 kill: 4.6; PrP UTR inh: 4; Autofluor counter: 5427; Mtb hypoxia inh: -6; Sa ugtP lethal: 1; BJeLR lethal: -9; Mtb hypoxia inh growth: 0

Results for O=C(Nc1c2c(nn1-c1ccccc1)CS(=O)(=O)C2)c1ccco1 ?
RN4220 kill: 2.0; PrP UTR inh: -20; Autofluor counter: 5279; Mtb hypoxia inh: 4; Sa ugtP lethal: -3; BJeLR lethal: -5; Mtb hypoxia inh growth: 9

How did Cc1ccc(C(=O)Nc2ccc3nc(C)sc3c2)s1 do in these assays?
RN4220 kill: 11; PrP UTR inh: -104; Autofluor counter: 2868; Mtb hypoxia inh: 19; Sa ugtP lethal: -5; BJeLR lethal: 10; Mtb hypoxia inh growth: 13

In the list so far, 4 contain fluorine:
Results for CN(c1ccc(OCC(=O)NC2=NCCS2)cc1)S(=O)(=O)c1ccc(F)cc1 ?
RN4220 kill: 0.5; PrP UTR inh: -20; Autofluor counter: 4802; Mtb hypoxia inh: -1; Sa ugtP lethal: 1; BJeLR lethal: -7; Mtb hypoxia inh growth: 1

What do the screens show for `CC(=O)C1=C(C)Nc2cc(C(F)(F)F)ccc2S1`?
RN4220 kill: 1.9; PrP UTR inh: -15; Autofluor counter: 3573; Sa ugtP lethal: 1; BJeLR lethal: 5

How did O=C(NCCOc1ccc(Cl)cc1)C1CC(=O)N(c2ccc(F)cc2)C1 (configuration not stated) do in these assays?
RN4220 kill: -3.7; PrP UTR inh: -16; Autofluor counter: 8096; Mtb hypoxia inh: -7; Sa ugtP lethal: -13; BJeLR lethal: -1; Mtb hypoxia inh growth: -4

How did COc1cccc(/C=C2\SC(=N)N(c3ccc(F)cc3)C2=O)c1 do in these assays?
RN4220 kill: -14; PrP UTR inh: -11; Autofluor counter: 4508; Mtb hypoxia inh: 1; Sa ugtP lethal: 0; BJeLR lethal: 10; Mtb hypoxia inh growth: 4

More entries.
What do the screens show for `CC(C)(C)C(=O)Nc1ccccc1C(=O)NCCC(=O)Nc1ccccc1`?
RN4220 kill: 2.9; PrP UTR inh: 12; Autofluor counter: 4099; Mtb hypoxia inh: 9; Sa ugtP lethal: -2; BJeLR lethal: -3; Mtb hypoxia inh growth: 7

What do the screens show for `COc1ccc(N2CCN(C(=O)c3c(C)nn(-c4ccccc4)c3C)CC2)cc1`?
RN4220 kill: 2.7; PrP UTR inh: -18; Autofluor counter: 2405; Mtb hypoxia inh: 10; Sa ugtP lethal: 37; BJeLR lethal: -5; Mtb hypoxia inh growth: 11

How did COc1ccc(NC(=O)CSCc2cc(=O)n3nc(C4CC4)sc3n2)cc1 do in these assays?
RN4220 kill: 1.4; PrP UTR inh: -13; Autofluor counter: 4987; Mtb hypoxia inh: -1; Sa ugtP lethal: 6; BJeLR lethal: -16; Mtb hypoxia inh growth: 2

How did CN(CCc1ccccc1)C(=O)c1ccc(NC(=O)Cc2cccc(NC(=O)C3CCN(S(=O)(=O)c4cccc([N+](=O)[O-])c4)CC3)c2)cc1 do in these assays?
RN4220 kill: 3.9; PrP UTR inh: -12; Autofluor counter: 3495; Mtb hypoxia inh: -11; Sa ugtP lethal: -6; Mtb hypoxia inh growth: 4

Results for O=S(=O)(c1ccc(F)cc1)N1CCN(C(=S)NC2CCCC2)CC1 ?
RN4220 kill: 5.4; PrP UTR inh: -24; Autofluor counter: 1967; Mtb hypoxia inh: 7; Sa ugtP lethal: 4; BJeLR lethal: -1; Mtb hypoxia inh growth: 7

What do the screens show for `CS(=O)(=O)n1nc(OC(=O)c2cccs2)cc1N`?
RN4220 kill: 3.2; PrP UTR inh: -17; Autofluor counter: 3593; Mtb hypoxia inh: -4; Sa ugtP lethal: -2; BJeLR lethal: 6; Mtb hypoxia inh growth: 1

How did CCCCOc1ccc(C(=O)NCCc2cccs2)cc1 do in these assays?
RN4220 kill: 6.4; PrP UTR inh: -35; Autofluor counter: 4400; Mtb hypoxia inh: 2; Sa ugtP lethal: -1; BJeLR lethal: -3; Mtb hypoxia inh growth: 8

What do the screens show for `O=C(CN(Cc1ccco1)C(=O)CNS(=O)(=O)c1ccccc1)NCc1ccc(F)cc1`?
RN4220 kill: 4.0; PrP UTR inh: 2; Autofluor counter: 4986; Sa ugtP lethal: 6; BJeLR lethal: 0

How did COc1cc(NS(=O)(=O)c2ccc3ccccc3c2)c2ncccc2c1 do in these assays?
PrP UTR inh: 16; Autofluor counter: 5999; BJeLR lethal: 25

Results for COC(=O)c1scc2c(Oc3ccccc3)cc(C(F)(F)F)nc12 ?
RN4220 kill: 1.5; Mtb hypoxia inh: 6; Sa ugtP lethal: 12; BJeLR lethal: -4; Mtb hypoxia inh growth: 2

How did COc1ccc(CSCC(=O)N/N=C/c2ccc(OCC(=O)N3CCCCC3)cc2)cc1 do in these assays?
PrP UTR inh: 2; Autofluor counter: 5275; BJeLR lethal: -4

How did CCOc1ccc(N(C(=O)C2CCCO2)C2C=CS(=O)(=O)C2)cc1 (configuration not stated) do in these assays?
RN4220 kill: 2.7; PrP UTR inh: -24; Autofluor counter: 3135; Mtb hypoxia inh: 2; Sa ugtP lethal: 0; BJeLR lethal: -2; Mtb hypoxia inh growth: 5

Results for CCC(=O)N1CCc2cc(S(=O)(=O)CCC(=O)NCc3ccco3)ccc21 ?
RN4220 kill: 4.4; PrP UTR inh: -15; Autofluor counter: 1886; Mtb hypoxia inh: 15; Sa ugtP lethal: 10; BJeLR lethal: -2; Mtb hypoxia inh growth: 4

Bioassay records deposited in PubChem by several laboratories.

Rows are unselected; any-hit rate near 4%.
